Bioassay records (PubChem)
miR-21 reporter = qHTS Assay for Modulators of miRNAs and/orActivators of miR-21 | AID 2288, 2010 | HeLa miR-21 FLuc reporter, luciferase, 48 h | 340,000 tested, under 10 active | Potency, µM (doses to about 38.3 µM), inactives show at the highest dose reporter change, positive = more light; active = well fitted rising curve with a large enough effect; inconclusive = small, poorly fitted or top-dose-only effect; inactive = no such curve, though single readings can be large or run the other way;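 note: % of control where 0% means no effect; miR-21 action dims this reporter so a rising signal means less miR-21 action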
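Compounds were titrated across several concentrations (up to approximately 40 uM) and incubated 48 hours with HeLa miR-21-FLuc reporter cells (miR-21 target sequence downstream of FLuc, endogenous miR-21). Readout was firefly luciferase luminescence after lytic detection reagent.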
* hit, by the source's call; ? = inconclusive.

no. | molecule | miR-21 reporter
1 | O=C(c1ccc(C(F)(F)F)cc1)N1CCC(c2nc(-c3ccc(S(=O)(=O)N4CCCC4)cc3)no2)CC1 | 12%
2 | CCc1ccc2ncc3c(-c4ccc(C)cc4)nn(CC(=O)Nc4ccc(C)cc4)c3c2c1 | -3%
3 | CCOc1cc(C2C(C(=O)OC)=C(C)NC3=C2C(=O)c2ccccc23)c(Br)cc1OC (stereo not given) | -2%
4 | COC(=O)c1cccc(-n2c(CCC(=O)O)ccc2-c2ccc(OC)cc2)c1 | 17%
5 | CCCCNC(=O)CN1C(=O)COc2ccc(S(=O)(=O)N3CCCC3)cc21 | 4%
6 | CCOC(=O)c1cccc(NC(=O)N2CC(CC)Sc3ccccc32)c1 (stereo not given) | -2%
7 | COc1cccc(NC(=O)Cn2nc(C)c3c(C)n(-c4ccccc4)nc3c2=O)c1 | 2%
8 | CCn1c2ccccc2c2cc(CN3CCN(Cc4ccccc4C)CC3)ccc21 | -5%
9 | CCOc1ccc(C(=O)c2cn(CC(=O)Nc3ccc4c(c3)OCCO4)c3ccc(OC)cc3c2=O)cc1 | 6%
10 | CCOc1ccccc1NC(=O)Cn1nc(N2CCN(c3ccccc3)CC2)ccc1=O | -2%

Next records:
no. | molecule | miR-21 reporter
11 | CC1CCc2c(sc(NC(=O)c3cc(-c4cccc(Cl)c4)on3)c2C(N)=O)C1 (stereo not given) | -6%
12 | Cc1ccc2nc(SC(Cc3cc(Cl)ccc3Cl)C(=O)O)[nH]c2c1 (stereo not given) | -6%
13 | Cc1nn(C(=O)c2ccccc2F)c(C)c1S(=O)(=O)N1CCCCCC1 | 0%
14 | Cc1ccc(CCNC(=O)Cn2ncc3c([nH]c4ccc(C)cc43)c2=O)cc1 | -13%
15 | CCC(=O)OCc1cnc(C)c2oc(=O)c(C(=O)Nc3ccc(CC)cc3)cc12 | 0%
16 | CCCc1cnc2c(c1SCC(=O)Nc1cccc(C)c1C)c(=O)n(C)c(=O)n2C | -1%
17 | O=C(NC1CC(=O)N(c2ccccc2)C1)c1cccs1 (stereo not given) | -1%
18 | COc1cccc(Cc2nc3ccccc3nc2SCC(=O)N2CCCc3ccccc32)c1 | -6%
19 | COCCNS(=O)(=O)c1cc(-c2nn3c(C)nnc3c3ccccc23)ccc1C | -24%
20 | Cc1ccc(CNc2nc(-c3ccco3)nn2S(C)(=O)=O)cc1 | -28%

(next part)
no. | molecule | miR-21 reporter
21 | Cc1cccc(NC(=S)NC(=O)C2CC2)c1 | -37%
22 | O=C(COCc1cc(-c2ccc3c(c2)OCO3)on1)NCc1ccccc1Cl | -13%
23 | COc1ccc(NC(=O)c2ccc(-c3nc(CSc4ccccc4)c(C)o3)cc2)c(OC)c1 | -3%
24 | O=S(=O)(c1ccc(Cl)cc1)c1nc(-c2cccc(Br)c2)oc1NCc1ccccc1 | -2%
25 | CC(NC(=O)c1nn(C)c2c1CSc1ccccc1-2)c1ccccc1 (stereo not given) | 2%
26 | CCCCCCNC(=O)c1c[nH]c2ccc(S(=O)(=O)N(C)c3ccc(C(C)C)cc3)cc2c1=O | -2%
27 | COc1ccc(NC(=O)CSc2nc(-c3ccc(OC)c(OC)c3)[nH]c2-c2ccc(C)cc2)cc1 | 26%
28 | COc1ccc(NC(=O)CCS(=O)(=O)c2ccc3nc(C)sc3c2)cc1Cl | 1%
29 | Cn1c(=O)c2c(nc(N3CCOCC3)n2Cc2ccccc2)n(C)c1=O | 5%
30 | CCOC(=O)c1ccc(N2CCN(c3cc(C)ccc3C)CC2)c(NC(=O)Nc2ccc(CC)cc2)c1 | 3%

Carrying on.
no. | molecule | miR-21 reporter
31 | COc1cc(NC(=O)c2nc3ccccc3n(C)c2=O)cc(OC)c1OC | -3%
32 | Cc1cc(C)c(Nc2ncnc3c2cnn3C)c(C)c1 | -1%
33 | Cc1ccc(Cn2ccnc2SCC(=O)Nc2nnc(C)s2)cc1 | 5%
34 | CCOc1ccc(CNCCCSc2nnnn2C)cc1OC | -5%
35 | Cc1cccc(C)c1-n1ncc(C(=O)N2CCN(c3ncccn3)CC2)c1C1CCN(C(=O)OC(C)(C)C)CC1 | -2%
36 | COc1ccc(C2CC(=O)N(CC(=O)Nc3cccc(C)c3C)c3ccccc3S2)cc1OC (stereo not given) | -5%
37 | COc1cc(NC(=O)CSc2nc(-c3ccc(C(C)C)cc3)no2)cc(OC)c1 | 8%
38 | Cc1noc(/C=C/c2ccccc2F)c1S(=O)(=O)N1CCC(C(=O)N2CCOc3ccccc32)CC1 | -3%
39 | Cc1ccc(C)c(NC(=O)CCc2nc(-c3ccc(C(C)(C)C)cc3)no2)c1 | 25%
40 | CCC(=O)Nc1cc(-c2cccc(C)c2)nn1-c1ccccc1 | -22%

New compounds follow:
no. | molecule | miR-21 reporter
41 | Cc1ccc(NC(=O)C(C)Sc2nc(-c3ccccc3)c(C#N)c(=O)[nH]2)c(C)c1 (stereo not given) | 3%
42 | CCOC(=O)c1ccc(NC(=O)CSc2nccn2-c2ccc(OCC)cc2)cc1 | 21%
43 | O=C1c2[nH]nc(-c3ccccc3O)c2C(c2cccc(Br)c2)N1Cc1ccncc1 (stereo not given) | ?
44 | COc1ccccc1CNC(=O)Nc1ccc2c(c1)N(C)C(=O)c1ccccc1S2 | -19%
45 | O=C(O)c1ccc(Nc2nc3ccccc3n3cnnc23)cc1 | -12%
46 | COC(=O)c1c(N)n(-c2ccc(OC)c(OC)c2)c2nc3ccccc3nc12 | -6%
47 | CC1CCN(S(=O)(=O)c2ccc3c(c2)c(=O)c(C(=O)NC(C)c2ccccc2)cn3C)CC1 (stereo not given) | 2%
48 | Cc1ccc(S(=O)(=O)Nc2cc3c(cc2C)n(C)c(=O)c(=O)n3C)c(C)c1 | 1%
49 | CCOC(=O)c1[nH]c(C)c(C(=O)NCc2ccc(F)cc2)c1C | 0%
50 | CCOc1ccc(NC(=O)CSc2nc3nc(C)c(Cc4ccccc4)c(C)n3n2)cc1 | 3%

Other structures follow:
no. | molecule | miR-21 reporter
51 | COc1ccc(CN2C(=O)N(c3ccc(F)cc3)C(=O)C2CC(=O)Nc2ccccc2)cc1 (stereo not given) | 10%
52 | O=C(Nc1cc(-c2nc3cc(Cl)ccc3o2)ccc1Cl)c1cc([N+](=O)[O-])ccc1N1CCOCC1 | -18%
53 | COc1ccc(C)cc1NC(=O)c1cc(S(=O)(=O)N2CCC(C)CC2)cn1C | 3%
54 | Cc1ccc(NC(=O)Cn2cc(C(=O)c3ccco3)c3ccccc32)cc1C | 25%
55 | COc1ccc2cc(-c3nnc(Nc4ccccc4)s3)c(=O)oc2c1 | -19%
56 | Cc1ccc(O)c(NC(=O)CCS(=O)(=O)c2nc(-c3cccs3)cc(C(F)(F)F)n2)c1 | ?
57 | CCOC(=O)C1CCN(c2ncnc3c2nc2n3CCCCC2)CC1 | -22%
58 | COc1ccc(OC)c(CNC(=O)CN2N=C(c3ccc(Cl)cc3)CCC2=O)c1 | 2%
59 | O=C(N/N=C/c1ccco1)c1[nH]ncc1Br | -42%
60 | CC1CCCN(c2nc(-c3ccccc3O)nc3ccccc23)C1 (stereo not given) | -1%

A draw from above in order of formula weight, high to low.
no. | molecule | miR-21 reporter
53 | COc1ccc(C)cc1NC(=O)c1cc(S(=O)(=O)N2CCC(C)CC2)cn1C | 3%
54 | Cc1ccc(NC(=O)Cn2cc(C(=O)c3ccco3)c3ccccc32)cc1C | 25%
57 | CCOC(=O)C1CCN(c2ncnc3c2nc2n3CCCCC2)CC1 | -22%

Further structures follow.
no. | molecule | miR-21 reporter
61 | O=C(Cc1ccc(F)cc1)N1CCC(c2nc3c(nnn3Cc3ccc(Cl)cc3)c(=O)[nH]2)CC1 | -12%
62 | CCOc1ccc(C2C=C(c3cccc(OC)c3)Nc3nnnn32)cc1 (stereo not given) | -21%
63 | COC(=O)c1c(NC(=O)COc2ccc(C(C)C)cc2)sc2c1CCCC2 | -8%
64 | CCOC(=O)c1c(C)[nH]c(CCC(=O)NC(C)c2ccccc2)c1C (stereo not given) | -1%
65 | CCc1nn2c(=O)cc(COC(=O)c3cccc(NC(=O)COc4ccccc4F)c3)nc2s1 | 8%
66 | O=C(NC1CCCC1)c1ccc(CSc2nc3cccnc3n2Cc2ccccc2F)cc1 | 7%
67 | COc1cccc(C2C(C(=O)Nc3ccccc3OC)=C(C)Nc3nc(-c4ccco4)nn32)c1 (stereo not given) | 4%
68 | CCOc1ccc(Br)cc1C1C(C(=O)OC)=C(C)NC2=C1C(=O)c1ccccc12 (stereo not given) | -2%
69 | Cc1cccc2sc(N(Cc3cccnc3)C(=O)Cc3ccccc3)nc12 | 16%
70 | CCOC(=O)c1c(-c2ccccc2)oc2ccc(N(C(C)=O)S(=O)(=O)c3ccc(CC)cc3)cc12 | 4%

The last three compounds of the part before lead into the next.
no. | molecule | miR-21 reporter
68 | CCOc1ccc(Br)cc1C1C(C(=O)OC)=C(C)NC2=C1C(=O)c1ccccc12 (stereo not given) | -2%
69 | Cc1cccc2sc(N(Cc3cccnc3)C(=O)Cc3ccccc3)nc12 | 16%
70 | CCOC(=O)c1c(-c2ccccc2)oc2ccc(N(C(C)=O)S(=O)(=O)c3ccc(CC)cc3)cc12 | 4%
71 | CN1C(=O)C2(SCC(=O)N2c2cccc(C(F)(F)F)c2)c2ccccc21 (stereo not given) | ?
72 | CNC(=O)C1CCN(Cc2cc3ccccc3n2Cc2ccccc2C)CC1 | 22%
73 | CCOC(=O)CNC(=O)N1CCN(S(=O)(=O)c2ccc3c(ccn3C)c2)CC1 | -8%
74 | O=C(NCc1noc2ccccc12)Nc1ccc(F)cc1F | -25%
75 | O=C(Cn1nc(-c2ccccc2)c2c(c1=O)CCCC2)Nc1ccc(F)c(Cl)c1 | 0%
76 | CC(C)(C)CC(=O)NC1CC(=O)N(c2ccc3c(c2)OCCO3)C1 (stereo not given) | 8%
77 | CCOc1ccccc1NC(=O)CSc1ccc2nnc(CCNS(=O)(=O)c3ccccc3)n2n1 | 1%
78 | Cn1c(=O)c2cc(C(=O)NCCCN3CCN(c4ccccc4F)CC3)sc2c2ccccc21 | 5%
79 | Cc1cc(Br)ccc1NC(=O)c1cc2c(=O)n(C)c3cc(Cl)ccc3c2s1 | -2%
80 | Cc1ccc(NC(=O)c2nc(S(=O)(=O)Cc3cccc(C)c3)ncc2Cl)cc1 | ?

(continued)
no. | molecule | miR-21 reporter
81 | CC1=C(c2ccc(Cl)cc2)S(=O)(=O)N=C1N1CCN(c2cccc(C(F)(F)F)c2)CC1 | -3%
82 | CCCCN(CC)CCCNC(=O)Cn1ncc2c3ccccc3n(C)c2c1=O | 0%
83 | COc1cccc(NC(=O)N2CCC(n3c(C)nc4cccnc43)CC2)c1 | 0%
84 | Cc1ccccc1C(=O)Nc1c(C)nc(Nc2ccccc2)nc1Nc1ccccc1 | ?
85 | Cc1nc2nc(SCC(=O)NC3CCC(C)CC3)nn2c(C)c1Cc1ccccc1 (stereo not given) | -5%
86 | O=C(NC1CCCCC1)c1ccc(CSc2nc3cccnc3n2Cc2cccc(F)c2)cc1 | -1%
87 | CCOc1ccc(CN2CCc3nc(N4CCN(c5ccccc5OC)CC4)ncc3C2)cc1OC | ?
88 | CCc1cccc(NC(=O)CN2c3ccccc3S(=O)(=O)c3ccccc32)c1 | 16%
89 | COc1ccc(OC)c2sc(N3CCN(C(=O)C4CC4)CC3)nc12 | -16%
90 | CCOc1ccc(-n2c(Cc3ccccc3)nnc2SCc2nc(-c3cccs3)no2)cc1 | 1%

(next part)
no. | molecule | miR-21 reporter
91 | COc1ccc(NC(=O)c2c(N)c(C(=O)c3ccc(OC)cc3)n3ccccc23)cc1 | 5%
92 | COc1ccccc1NC(=O)C1=C(C)Nc2nc(-c3ccco3)nn2C1c1ccccc1 (stereo not given) | 11%
93 | Cc1ccc(NC(=O)C(=O)NCC(c2cccnc2)N2CCOCC2)cc1Cl (stereo not given) | ?
94 | CCN(C(=O)CSc1nc2ccccc2n1Cc1ccccc1C#N)c1ccccc1 | -8%
95 | CCOC(=O)N1CCN(C(=O)CN(c2cc(C)ccc2OC)S(=O)(=O)c2ccc(C)cc2)CC1 | 6%
96 | O=c1c2ccccc2nc(N2CCN(c3cccc(Cl)c3)CC2)n1-c1ccccc1 | ?
97 | COc1cccc(CNC(=O)CCn2nc(C)c3c(C)n(-c4ccccc4)nc3c2=O)c1 | 3%
98 | Cc1cccc(OCc2nnc(-c3ccccc3)o2)c1 | -59%
99 | COc1cccc(C(=O)Nc2ccc(-c3nc4ccccc4s3)cc2Cl)c1 | 4%
100 | COc1ccc(OC)c(-c2cc(C(=O)NC(C)c3ccccc3)no2)c1 (stereo not given) | -33%

Look-ups from the list.
miR-21 reporter with #73 = -8%
miR-21 reporter with #40 = -22%
miR-21 reporter with #7 = 2%
miR-21 reporter with #19 = -24%
miR-21 reporter with #63 = -8%

Going on with the list.
no. | molecule | miR-21 reporter
101 | COc1ccccc1N1CCN(C(=O)c2cc3c(=O)oc4ccccc4c3s2)CC1 | 0%
102 | COc1ccc(N2CC(NC(=O)c3cccs3)CC2=O)cc1OC (stereo not given) | -2%
103 | Cc1ccc(NS(=O)(=O)c2ccc3[nH]c4c(c3c2)CCCC4)c(C)c1 | 1%
104 | CC(C)(C)C1CCc2nc(NC(=O)COc3ccc(F)cc3)sc2C1 (stereo not given) | 1%
105 | CC(C)(C)c1ccc(C(=O)N2CCN(CCc3ccccn3)CC2)cc1 | -9%
106 | CCc1ccc(CNC(=O)C2CCN(c3nnc(-n4c(C)ccc4C)s3)CC2)cc1 | 8%
107 | CCOc1cc2sc(N3CCC(C(=O)Nc4cc(C)cc(C)c4)CC3)nc2cc1Br | -11%
108 | COc1ccccc1-c1cc(C(=O)N2CCCCC2C)no1 (stereo not given) | -59%
109 | Cc1ccc(NC(=O)CCC(=O)N2Cc3ccccc3Oc3ncccc32)cc1F | 0%
110 | O=C(CCCn1c(=O)c2cccn2c2ccccc21)NCc1ccccc1Br | -1%

Looked up by compound from the list above (2):
no. | molecule | miR-21 reporter
109 | Cc1ccc(NC(=O)CCC(=O)N2Cc3ccccc3Oc3ncccc32)cc1F | 0%
105 | CC(C)(C)c1ccc(C(=O)N2CCN(CCc3ccccn3)CC2)cc1 | -9%

These rows are one share of the data; count on the stated rates, not on these rows.
